ID4 SMM: binds human ID4 protein on microarray | P47928 | small molecule microarray, Flag-ID4 binding, fluorescence F/B | calls only | 1.2% of 31,000 active | AID 624137;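 active means spot signal over background at p below 0.07 in all four prints; compounds were printed on slides so no solution concentration is given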;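 further: a binder raises fluorescence above local background on the spot; about 2 pmol printed per array spot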
Target sequence (P47928 whole entry, looked up): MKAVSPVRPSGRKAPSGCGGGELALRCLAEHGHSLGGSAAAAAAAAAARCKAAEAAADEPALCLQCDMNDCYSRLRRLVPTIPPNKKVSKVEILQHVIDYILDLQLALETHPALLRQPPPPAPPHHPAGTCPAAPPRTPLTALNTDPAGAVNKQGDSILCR
Calls only; i = inactive; + = active, no number.

item	canonical_smiles	ID4 SMM
1	COCCOC(=O)N1C(=O)[C@@]2(c3cc(C#Cc4ccc(OC)cc4)ccc31)[C@H](C(=O)N1CCc3cc(OC)c(OC)cc3C1)[C@H]1C(=O)O[C@H](c3ccccc3)[C@H](c3ccccc3)N1[C@@H]2c1ccccc1OCCO	+
2	Cc1ccc([N+](=O)[O-])cc1NC(=O)CSc1nnc(-c2ccncc2)n1C	i
3	CCOC(=O)c1cc(-c2ccccc2)n(CCNC(=O)OC(C)(C)C)c1C	i
4	O=C(CSc1ncnc2sc3c(c12)CCC3)NCC1CCCO1 (stereo not given)	i
5	Cc1ccc(-n2nnnc2SCC(=O)Nc2ccc3c(c2)COC3=O)cc1C	i
6	CSc1ccccc1-n1nnnc1SCC(=O)Nc1cc(C)ccc1C	i
7	C[C@H]1CN([C@@H](C)CO)C(=O)c2cc(-c3ccccc3)cnc2O[C@H]1CN(C)C(=O)c1ccccc1F	i
8	CS(=O)(=O)N(CC(=O)Nc1cccc([N+](=O)[O-])c1)c1ccc(F)c(Cl)c1	i
9	Cc1ccc(N(C(C)C(=O)Nc2ccc(I)cc2)S(C)(=O)=O)cc1C (stereo not given)	i
10	CSc1cccc(NC(=O)CSc2nnc(-c3cccc(C)c3)o2)c1	i
11	O=C(COc1ccc(Cl)cc1)Nc1ncccn1	i
12	COc1ccccc1NC(=O)CSc1nnc(-c2cccc3ccccc23)n1-c1ccccc1	i

Entries above that have four or more nitrogen atoms, in the order listed:
item	canonical_smiles	ID4 SMM
2	Cc1ccc([N+](=O)[O-])cc1NC(=O)CSc1nnc(-c2ccncc2)n1C	i
5	Cc1ccc(-n2nnnc2SCC(=O)Nc2ccc3c(c2)COC3=O)cc1C	i
6	CSc1ccccc1-n1nnnc1SCC(=O)Nc1cc(C)ccc1C	i
12	COc1ccccc1NC(=O)CSc1nnc(-c2cccc3ccccc23)n1-c1ccccc1	i

(next part)
item	canonical_smiles	ID4 SMM
13	Cc1ccc(SCC(=O)Nc2cccc(Oc3ccc4c(c3)C(=O)NC4=O)c2)cc1	i
14	CO[C@H](CN(C)Cc1cc(F)ccc1F)[C@H](C)CN(C(=O)Nc1ccc(C(F)(F)F)cc1)[C@H](C)CO	i
15	COc1ccc(OC)c(S(=O)(=O)N(C)CC(=O)N2CCN(c3ccccc3)CC2)c1	i
16	C[C@@H]1CN([C@H](C)CO)C(=O)c2cc(C#Cc3ccccc3F)cnc2O[C@H]1CN(C)C(=O)C1CCC1	i
17	C[C@H](CO)N1C[C@H](C)[C@@H](CN(C)C(=O)C2CC2)Oc2ncc(C#CC3CCCC3)cc2C1=O	i
18	CC1CC(=O)c2cnc(N3CCc4ccccc43)nc2C1 (stereo not given)	i
19	C[C@H]1CN([C@@H](C)CO)C(=O)c2cc(NC(=O)CCC(F)(F)F)ccc2O[C@@H]1CN(C)CC1CC1	i
20	Cc1cccn2c(=O)c3cc(C(=O)NC4CCSC4=O)sc3nc12 (stereo not given)	i
21	Cn1cnnc1SC1CCCCC1NS(=O)(=O)c1ccc(Cl)cc1 (stereo not given)	i
22	Cc1cc(C)c2nc(-c3ccccn3)cc(C(=O)NCCc3ccc(S(N)(=O)=O)cc3)c2c1	i
23	C[C@@H]1CN([C@H](C)CO)C(=O)c2cc(-c3ccccc3F)cnc2O[C@H]1CN(C)Cc1ccc(F)cc1	i
24	CCOc1ccc(-c2nc3ccc(-c4nc5ccc(N6CCN(C)CC6)cc5[nH]4)cc3[nH]2)cc1	i
25	O=C(Nc1ccc(-c2nc3ccccc3o2)c(O)c1)c1ncn[nH]1	i
26	CCOC(=O)c1c(NC(=S)NCc2cc(C)n(C)n2)sc2c1CCCC2	i
27	C[C@@H]1CN([C@@H](C)CO)C(=O)c2cccc(NC(=O)C3CC3)c2O[C@@H]1CN(C)Cc1ccccc1	i
28	CC(=O)N[C@@H]1CC[C@@H](CCNC(=O)C2CCCC2)O[C@@H]1CO	i
29	C=C1C(=O)OC2CC(C)C3(/C=C/C(C)=O)OC3CC12 (stereo not given)	i
30	C/C=C1\[C@H]2C=C(C)C[C@]1(N)c1ccc(=O)[nH]c1C2	i
31	C/C=C/[C@@H](CCn1cc([C@H](O)c2ccccc2)nn1)[Si](C)(C)c1ccc(OC)cc1	i
32	CC(C)c1ccc(OCC(=O)Nc2ccc(O)cc2C(=O)O)cc1	i
33	O=C(COc1ccc2ccccc2c1)Nc1ccccc1C(=O)Nc1ccc(F)cc1	i
34	COC(=O)c1ccccc1NC(=O)CC1Sc2ccc(C(F)(F)F)cc2NC1=O (stereo not given)	i
35	Cc1ccccc1NC(=O)CSc1nc(-c2ccc(Cl)cc2)cc(C(F)(F)F)n1	i
36	CN(CC(=O)Nc1ccccc1Br)S(=O)(=O)c1ccc2ccccc2c1	i

Values in list order from the entries so far.
Entries 26–33 in ID4 SMM, in turn: i, i, i, i, i, i, i, i

The listing continues:
item	canonical_smiles	ID4 SMM
37	CCCC#Cc1cnc2c(c1)C(=O)N([C@@H](C)CO)C[C@H](C)[C@@H](CN(C)C(=O)c1ccccc1)O2	i
38	CCS(=O)(=O)N[C@@H]1CC[C@@H](CC(=O)NC2Cc3ccccc3C2)O[C@@H]1CO	i
39	CCCC#Cc1cnc2c(c1)C(=O)N([C@H](C)CO)C[C@H](C)[C@H](CN(C)C(=O)C1CCC1)O2	i
40	O=C(CSc1nc2ccccc2[nH]1)Nc1cccc2ccccc12	i
41	CCN(CC)c1ccc(/C=C2/C(=O)NN(c3ccc(C)cc3)C2=O)cc1	i
42	C[C@@H]1CN([C@H](C)CO)C(=O)c2cc(C#CCc3ccccc3)cnc2O[C@H]1CN(C)C(=O)C1CCOCC1	i
43	Cc1nnc(SCC(=O)Nc2cccc(C)c2C)s1	i
44	COc1cc(C(=O)Nc2ccc(S(=O)(=O)Nc3ccccn3)cc2)cc(OC)c1OC	i
45	CCC(CO)NS(=O)(=O)c1ccc(OC)c(-c2nnc3c4ccccc4c(C)nn23)c1 (stereo not given)	i
46	Cc1cc(Oc2ccccc2)nc(SCC(=O)Nc2ccc(Cl)cc2Cl)n1	i
47	COCC(=O)N(C)C[C@H]1Oc2ncc(Br)cc2C(=O)N([C@@H](C)CO)C[C@@H]1C	i
48	O=C(C[C@H]1C=C[C@@H](NC(=O)c2cccnc2)[C@H](CO)O1)NCCN1CCCCC1	i
49	COc1cc(OC)c(NC(=O)CS(=O)(=O)c2ccccc2)cc1Cl	i
50	O=C(O)CCc1nn2c3ccccc3n(Cc3ccccc3)c2nc1=O	i
51	O=C(CSc1ncnc2sc(-c3ccccc3)cc12)NC1CCCCC1	i
52	Cc1cc(C)c(S(=O)(=O)N(C)CC(=O)Nc2ccccc2F)c(C)c1	i
53	CN(C)c1cc(C(F)(F)F)nc2cc(C(C)(C)C)nn12	i
54	CNC(=O)CN(c1cc([N+](=O)[O-])ccc1C)S(C)(=O)=O	i
55	CO[C@H](CN(C)C(=O)c1cc(Cl)cc(Cl)c1)[C@@H](C)CN(C(=O)Nc1ccc(F)cc1)[C@H](C)CO	i
56	CCn1c(SCC(=O)N2c3ccccc3Sc3ccccc32)nnc1-c1cccc(Cl)c1	i
57	Cc1cc(C(=O)Nc2ccccc2C(=O)O)ccc1NC(=O)COc1ccccc1Cl	i
58	C[C@H]1CN([C@@H](C)CO)C(=O)CCCn2cc(nn2)CO[C@@H]1CN(C)CC1CCCC1	i
59	CCn1c(SCC(=O)c2cccc([N+](=O)[O-])c2)nnc1-c1ccc(Cl)cc1	i
60	O=C(C[C@H]1CC[C@@H](NC(=O)CC2CC2)[C@H](CO)O1)NCc1ccc(-c2ccccc2)cc1	i
61	C[C@@H]1CN([C@H](C)CO)C(=O)c2cc(/C=C/c3ccccc3)cnc2O[C@@H]1CN(C)Cc1ccccc1F	i
62	CCCOc1ccc2oc(=O)c3c(c2c1)CCCN3C(=O)CN(C)c1ccc(C)cc1	i
63	Cc1cc(C)nc(SCCC(=O)N2CCOCC2)n1	i
64	C=CCN1Cc2ccccc2C[C@@]2(COC(c3ccc(OCCCO)cc3)=N2)C1=O	i
65	O=C(CSc1n[nH]c(-c2ccc(Cl)cc2Cl)n1)Nc1cccc(C(F)(F)F)c1	i
66	COc1ccc(NC(=O)CSc2nc3sc4c(c3c(=O)n2-c2ccccc2)CCC4)c([N+](=O)[O-])c1	i
67	CO[C@H](CN(C)Cc1cc(F)ccc1F)[C@H](C)CN([C@H](C)CO)S(=O)(=O)c1ccc(F)cc1	i
68	C[C@@H]1CN([C@H](C)CO)S(=O)(=O)c2ccc(-c3ccc(C(=O)N(C)C)cc3)cc2O[C@@H]1CN(C)C(=O)Cc1ccccn1	i
69	COc1ccc(OC)c(NC(=O)CN2CCC(C(N)=O)(N3CCCCC3)CC2)c1	i
70	COc1cc([N+](=O)[O-])ccc1NC(=O)CSc1nc(C)cc(-c2ccc(Cl)cc2)n1	i
71	Cc1cccc(N(CC(=O)Nc2ccc(I)cc2C)S(C)(=O)=O)c1	i
72	CCC(Sc1nnc(C)s1)C(=O)Nc1ccc(Cl)cc1 (stereo not given)	i
73	O=S(=O)(Nc1ccccn1)c1cccc(S(=O)(=O)c2ccc(Br)cc2)c1	i
74	c1ccc(Cn2c3ccccc3n3c(SCc4nc5ccccc5[nH]4)nnc23)cc1	i
75	CC(=O)c1ccc(NC(=O)CSc2nnc(-c3ccccc3)n2-c2ccccc2)cc1	i
76	C[C@H]1CN([C@@H](C)CO)C(=O)c2cc(C#CC3CCCCC3)cnc2O[C@H]1CN(C)C	i
77	C[C@H]1CN([C@@H](C)CO)C(=O)c2cc(C3=CCCCC3)cnc2O[C@@H]1CN(C)C(=O)Cc1ccccc1	i
78	O=C(C[C@H]1CC[C@H](NC(=O)C2CCC2)[C@H](CO)O1)NCC1CC1	i
79	COc1ccc(-n2c(SCC(=O)Nc3ccc(C(N)=O)cc3)nc3sc4c(c3c2=O)CCCC4)cc1	i
80	Cc1ccnc(SCC(=O)n2c3c(c4ccccc42)CC(C)CC3)n1 (stereo not given)	i
81	Cc1cc(NC(=O)CSc2nc3ccccc3[nH]2)ccc1Br	i
82	C[C@@H]1CN([C@@H](C)CO)S(=O)(=O)c2ccc(/C=C/c3ccccc3)cc2O[C@H]1CN(C)C(=O)Nc1cccc(F)c1	i
83	COc1ccc(Cl)cc1NC(=O)CN(C)S(=O)(=O)c1cc(C)ccc1OC	i
84	CCC1(CC)Cc2ccccc2-c2[nH]c(=S)n(Cc3ccccc3)c(=O)c21	i

Among those listed so far, these contain a COOH group.
item	canonical_smiles	ID4 SMM
32	CC(C)c1ccc(OCC(=O)Nc2ccc(O)cc2C(=O)O)cc1	i
50	O=C(O)CCc1nn2c3ccccc3n(Cc3ccccc3)c2nc1=O	i
57	Cc1cc(C(=O)Nc2ccccc2C(=O)O)ccc1NC(=O)COc1ccccc1Cl	i

The listing continues:
item	canonical_smiles	ID4 SMM
85	O=C(C[C@H]1C=C[C@@H](NC(=O)C2CC2)[C@H](CO)O1)NCC1CC1	i
86	Fc1ccc(-c2nc3n(c2-c2ccncc2)CCS3)cc1	i
87	Clc1ccc(-n2c(SCc3nc4ccccc4[nH]3)nnc2-c2ccncc2)cc1	i
88	Cc1ccc(-c2nc3ccccc3[nH]2)cc1NC(=O)COc1ccccc1[N+](=O)[O-]	i
89	CCS(=O)(=O)N1[C@H](CO)[C@H](c2ccc(C#Cc3ccccc3F)cc2)[C@@H]1C#N	i
90	Cc1cc(Cl)cc(Cl)c1OCC(=O)Nc1ccccc1[N+](=O)[O-]	i
91	COc1ccccc1NC(=O)COc1ccc(C(=O)Nc2cccc(C(F)(F)F)c2)cc1	i
92	CN(C)c1ccc2c(c1)[C@@H]1C[C@@H](CC(=O)NCc3ccncc3)O[C@@H](CO)[C@@H]1O2	i
93	C[C@H](CO)N1C[C@H](C)[C@@H](CN(C)Cc2cccc(C(F)(F)F)c2)OCc2cnnn2CCCC1=O	i
94	COc1ccccc1C#Cc1ccc2c(c1)O[C@@H](CN(C)C)[C@H](C)CN([C@@H](C)CO)S2(=O)=O	i
95	COc1cccc(S(=O)(=O)N(C)C[C@@H]2Oc3ncc(C#CCC(C)C)cc3C(=O)N([C@@H](C)CO)C[C@@H]2C)c1	i
96	C[C@@H]1CN([C@@H](C)CO)C(=O)c2cc(C#CCN(C)C)cnc2O[C@H]1CN(C)S(=O)(=O)c1cn(C)cn1	i
97	C[C@@H]1CN([C@@H](C)CO)C(=O)c2cc(Br)cnc2O[C@H]1CN(C)C(=O)c1ccccc1F	i
98	COc1cc(C(C)=O)cc(OC)c1O	i
99	CC(=O)c1cccc(NC(=O)CN2C(=O)COc3ccc(Cl)cc32)c1	i
100	CC(=O)Oc1ccc(C(=O)N(C(=O)c2ccc(OC(C)=O)cc2)c2cc(C)ccn2)cc1	i
101	CCC(=O)N(C)C[C@H]1Oc2ncc(-c3ccc(F)cc3)cc2C(=O)N([C@H](C)CO)C[C@H]1C	i
102	C[C@H](CO)N1C[C@H](C)[C@H](CN(C)C)Oc2ncc(C#CCN(C)C)cc2C1=O	i
103	COC(=O)c1ccccc1NC(=O)CN(C)S(=O)(=O)c1cc(Cl)ccc1Cl	i
104	COC(=O)c1cccc(NC(=O)C(C(C)C)N2C(=O)c3ccccc3C2=O)c1 (stereo not given)	i
105	CCn1c(SCC(=O)c2cc(OC)ccc2OC)nnc1-c1ccncc1	i
106	Cc1ccc2nc(-c3cccc(Br)c3)cc(C(=O)NCc3cccnc3)c2c1	i
107	C[C@H](CO)N1C[C@H](C)[C@H](CN(C)C(=O)C2CCC2)Oc2ncc(Br)cc2C1=O	i
108	C[C@H]1CN([C@@H](C)CO)S(=O)(=O)c2ccc(C#CC3(O)CCCC3)cc2O[C@@H]1CN(C)C(=O)c1ccncc1	i
109	COc1ccc(-c2nnc(SCCC(=O)O)n2-c2ccccc2)cc1	i
110	COc1cccc(S(=O)(=O)N[C@H]2C=C[C@@H](CC(=O)NC3Cc4ccccc4C3)O[C@@H]2CO)c1	i
111	CCn1c(SCc2nc3ccccc3c(=O)[nH]2)nnc1-c1cc2cccc(OC)c2o1	i

The list is partial. The share of hits here may be higher or lower than overall.
